Screening results as filed in PubChem BioAssay.
NPYLR7 ag: activates Aedes aegypti NPYLR7 receptor | HEK293T NPYLR7/Galpha15, GCaMP6s calcium fluorescence | activation, % at 10 µM | 0.15% of 270,000 active | AID 1259423; in the data active = activation above about 40%;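 note: 0% = vehicle and 100% = reference agonist at the receptor; some compounds past the cut are filed as inactive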
NPYLR7 ag max-min: further read-out of NPYLR7 ag, marked with its call; activation, %; measured here: Max-Min RFU normalised activation; some inactives read as strong as hits;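 span of the calcium signal over five minutes; 0% = vehicle and 100% = native peptide agonist; compound fluorescence can raise it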
* marks the source's active call; other numbers are inactive results; & = joins results of further samples. The list is partial; count on the stated rates, not on these rows.

SMILES | NPYLR7 ag | NPYLR7 ag max-min
O=c1c2cnc3ncnn3c2ccn1-c1ccc2c(c1)OCCO2 | 1.0 | 0.5
COCCN1C(=O)N(Cc2cccc(OC)c2)C(=O)C12CCN(C/C=C/c1ccccc1)CC2 | 12.6 | 3.0
COC(=O)[C@@H]1C[C@@H](O)CN1C(=O)CCSc1ccc2c(c1)OCCO2 | 1.6 | 3.9
COCC(C)NC(=O)c1sc2nc(C3CC3)nc(C)c2c1C (stereo unspecified) | 0.2 | -2.7
CONC(=O)C1CCN(S(=O)(=O)c2ccc(C)cc2)CC1 | 1.8 | 1.9
Cc1ccc(-n2[nH]c(C(C)C)c(-c3ccc(NC(=O)c4cccc(Br)c4)cc3)c2=O)cc1 | 24.7 | 35.8
C=CCN(CC=C)C(=O)C1CC2CCC1C2 (stereo unspecified) | -3.7 | -4.8
CN(C)C(CNc1ncc(C(N)=O)cc1Cl)c1ccccc1 (stereo unspecified) | 3.3 | 1.6
COC(=O)CC1C(=O)NCCN1Cc1nc(-c2ccc(OC)c(C)c2)oc1C (stereo unspecified) | 6.7 | 3.0
Cc1cccc(NC(=O)CCn2cnc(-c3ccccc3)c2-c2cnc(C)[nH]2)c1 | 2.8 | 2.0
CCC(=O)c1ccc(OCC(=O)c2cc(C)n(Cc3ccco3)c2C)cc1 | 11.8 | 13.3
COC(=O)c1ccc(C)c(NC(=O)CSCc2ccc3c(c2)OCO3)c1 | 8.4 | 3.5
COc1ccccc1OCC(=O)NCC1CCCN(Cc2ccc(O)c(Cl)c2)C1 (stereo unspecified) | 2.9 | -0.6
COc1ccc(NS(=O)(=O)c2ccc3nc(C)c(C)nc3c2)cc1 | 13.6 | 11.8
CN(C)Cc1cc(CN(C)C)c(O)c(-c2ccccc2)n1 | 2.4 | 0.1
COc1ccc(CNC(=O)C(C)Oc2ccc3c(c2)OCCO3)cc1OC (stereo unspecified) | 5.1 | 3.2
COc1cc(C(=O)NCC(c2ccc(N(C)C)cc2)N2CCc3ccccc32)c([N+](=O)[O-])cc1OC (stereo unspecified) | -0.2 | 7.6
CN(C)c1ccc(/C=N\NC(=O)CNC(=O)COc2ccc3c(c2)CCCC3)cc1 | 9.2 | 18.3
CCN(CC)c1ncccc1CNC(=O)c1cc(-c2cccn2C)n[nH]1 | -1.4 | -4.0
COc1cccc(OCc2ccccc2)c1C(=O)NC1CCC(C(C)(C)C)CC1 (stereo unspecified) | 0.8 | 0.1
Fc1cccc(-c2nc(CNc3ncc(Cl)cn3)[nH]c2-c2ccccn2)c1 | -2.9 | -4.0
Clc1ccc2c(c1)c1nc3ccccc3nc1n2Cc1nc2ccccc2o1 | 0.7 | -0.6
C=CCn1c(SCC(=O)Nc2ccc(OCC)cc2)nc2sc3c(c2c1=O)CCCC3 | -5.3 | -7.2
O=C(CNC(=O)c1ccccc1F)N=Nc1c(O)[nH]c2ccc([N+](=O)[O-])cc12 | -1.4 | -9.6

Quoted from the listing (4 entries):
SMILES | NPYLR7 ag | NPYLR7 ag max-min
O=c1c2cnc3ncnn3c2ccn1-c1ccc2c(c1)OCCO2 | 1.0 | 0.5
COCCN1C(=O)N(Cc2cccc(OC)c2)C(=O)C12CCN(C/C=C/c1ccccc1)CC2 | 12.6 | 3.0
COC(=O)[C@@H]1C[C@@H](O)CN1C(=O)CCSc1ccc2c(c1)OCCO2 | 1.6 | 3.9
COCC(C)NC(=O)c1sc2nc(C3CC3)nc(C)c2c1C (stereo unspecified) | 0.2 | -2.7

Carrying on.
SMILES | NPYLR7 ag | NPYLR7 ag max-min
O=C(CCC1CCN(C(=O)c2ccsc2)CC1)N1CCC(Cc2ccccc2)CC1 | 8.5 | 1.9
CC(SCc1nc(N)nc(N(C)C)n1)c1ccccc1Cl (stereo unspecified) | 3.3 | 4.1
O=C(Nc1ccc(Nc2cc(-n3ccnc3)ncn2)cc1)c1cccc2ccccc12 | -19.8 | -24.3
N[C@H]1CN[C@H](C(=O)N(CCc2ccccc2)Cc2ccco2)C1 | 13.3 | 10.9
CN(Cc1cc2n(n1)CCNC2)CC1(N2CCOCC2)CCCCC1 | 14.3 | 11.0
CSCCC(C)NC(C(N)=O)c1ccc(Br)cc1F (stereo unspecified) | -0.2 | 0.1
CC(C)(C)NC(=O)CSc1nnc(-c2cccnc2)o1 | 10.3 | 10.3
Cc1oc2c3c(ccc2c(=O)c1-c1ccccc1)OCN(CCc1cccs1)C3 | -3.1 | -8.0
COCCNC(=O)C1CCCN(C2CCN(C(=O)Cc3cccs3)CC2)C1 (stereo unspecified) | 7.4 | 2.0
COc1ccc(Cl)c2sc(N3CCN(C(=O)c4cccs4)CC3)nc12 | 13.0 | 6.0
CCOC(=O)c1cc(-c2cccc(NC(=O)c3cc(C)nn3C(C)(C)C)c2)n(-c2ccc(F)cc2)n1 | 2.3 | 0.6
COCCN(CC(=O)N(CCc1c[nH]c2ccccc12)Cc1ccc(C)cc1)C(=O)NCc1ccccc1 | -1.6 | -5.8
CC(=O)SCC(=O)C(C#N)c1nc2ccccc2n1C (stereo unspecified) | 13.1 | 11.5
CCOC(=O)c1[nH]c(C)c(C(=O)C(C)N(CCOC)S(=O)(=O)c2ccc(Cl)c([N+](=O)[O-])c2)c1C (stereo unspecified) | 22.3 | 23.5
CC1Cc2ccccc2N1C(=O)Cc1cc(-c2cc3ccccc3o2)on1 (stereo unspecified) | 8.8 | 10.6
O=C(Cc1ccccc1)Nc1cccc(-c2nc3ccccc3c(=O)o2)c1 | -8.5 | -12.6
CC(C)c1ccc(SCc2ccc(C(=O)N3C4CCC3CC(Oc3cccc(C#N)c3)C4)cc2)cc1 (stereo unspecified) | 5.0 | 0.6
CC(NCC(=O)Nc1ccnn1C1CCCC1)c1ccc2ccccc2c1 (stereo unspecified) | -1.6 | -1.5
CCOC(=O)C1CCCN(C(=O)c2ccc(CSc3nc(Cl)cc(N4CCN(c5cccc(C(F)(F)F)c5)CC4)n3)cc2)C1 (stereo unspecified) | 5.5 | 9.3
CCC(C(=O)N1CCc2ccccc2C1c1ccc(C)cc1)c1ccccc1 (stereo unspecified) | 22.9 | 17.6
O=C(c1ccc(Cl)cc1Cl)N1CCc2nc(-c3ccccc3)nc(N3CCCCC3)c2C1 | 18.9 | 20.6
CC(C)CNC(=O)c1ccccc1N(C)S(C)(=O)=O | 7.9 | 6.8
CC(NS(=O)(=O)c1ccccc1C#N)c1ccc(-n2ccnc2)cc1 (stereo unspecified) | 3.5 | 0.5
Cc1cc(C)c(S(=O)(=O)N2CCC(C(=O)NC(c3ccc(F)cc3)c3nccn3C)CC2)c(C)c1 (stereo unspecified) | 7.2 | 11.1
Fc1cccc(COc2ccc(-n3cnnn3)cc2)c1F | 4.6 | 3.2
COc1ccc(NC2CCCN(C(=O)CCn3c(C)cccc3=O)C2)cc1 (stereo unspecified) | 9.8 | 7.9
CC(=O)Nc1ccc(C=C2N=C(C(C)(C)C)OC2=O)cc1 | -0.1 | -2.2
C=CCOc1ccc(C2c3cc4c(cc3OC(=N)C2C#N)OCO4)cc1OC (stereo unspecified) | 4.7 | 4.6
O=C(CN1C(=O)Cn2c(cc3ccccc32)C1=O)N1CCN(C(=O)C2CC2)CC1 | 11.3 | 6.2
Cc1cc(C(=O)NC2CCC(NS(C)(=O)=O)CC2)c(F)cc1F (stereo unspecified) | 3.9 | 0.4
COc1cc(-c2cnc3c(NC4CCC(O)CC4)nccn23)cc(OC)c1OC (stereo unspecified) | -3.0 | -8.7
Cn1cc(NC(=O)CNC(=O)C(C)(C)C)cc(Br)c1=O | -7.7 | 287.5
COc1ccc(C)cc1NC(=O)CNC(=O)c1cnn2ccn(C)c12 | -0.1 | -1.6
Nc1ncc(C(=O)N2CCCC(CCc3ccc(F)cc3)C2)c(-c2ccccc2)n1 (stereo unspecified) | 6.3 | 2.3
Cc1ccc(C(CN2CCOCC2)NS(=O)(=O)c2cccc3nsnc23)cc1 (stereo unspecified) | 3.9 | -0.4
Cc1cccnc1NC(=O)CC1CSc2ncc(C)c(=O)n21 (stereo unspecified) | -0.8 | -2.6

Shown tab-delimited: part of the list above.
compound	NPYLR7 ag	NPYLR7 ag max-min
C=CCOc1ccc(C2c3cc4c(cc3OC(=N)C2C#N)OCO4)cc1OC (stereo unspecified)	4.7	4.6
Nc1ncc(C(=O)N2CCCC(CCc3ccc(F)cc3)C2)c(-c2ccccc2)n1 (stereo unspecified)	6.3	2.3
Fc1cccc(COc2ccc(-n3cnnn3)cc2)c1F	4.6	3.2
Cc1cc(C(=O)NC2CCC(NS(C)(=O)=O)CC2)c(F)cc1F (stereo unspecified)	3.9	0.4

The list continues:
SMILES | NPYLR7 ag | NPYLR7 ag max-min
O=C(c1ccc(-c2ccncc2)nc1)N1CCC(CCn2cccn2)CC1 | -2.8 | -7.5
O=C(NC(c1ccccc1)c1ccc(Cl)cc1)C1CC1(c1ccccc1)c1ccccc1 (stereo unspecified) | -5.4 | -12.0
COc1ccc(-n2c(Nc3nc(C)cc(C)n3)nc(C)cc2=O)cc1 | -1.1 | -6.0
Nc1nc(NCc2c(F)cccc2Cl)nn1-c1ccccc1 | -3.7 | 30.7
O=C(C1CCN(Cc2cn[nH]c2-c2ccc(F)cc2F)CC1)N1CCOCC1 | 1.7 | -3.7
CCOC(=O)c1csc(N(C)C(=O)Cc2ccccc2Cl)n1 | -1.1 | 0.6
COC(=O)c1ccsc1NC(=O)/C=C\C(=O)O | 2.8 | 7.2
C=CCC(C)(NCc1ccccc1)c1ccccc1 (stereo unspecified) | -17.7 | -22.4
COc1ccc(C)c2sc(N(CCCN(C)C)C(=O)c3ccc(Br)s3)nc12 | -3.6 | -4.2
CN(C)c1ccc(N=Nc2nn[nH]n2)cc1 | -4.6 | -9.7
COc1c(C(=O)N[C@@H](C)C(N)=O)cnc2c1c(C)nn2C | 4.9 | 3.1
O=C(Cc1cccs1)N1CCN(c2nc(C3CCOCC3)nc3c2cnn3-c2ccccc2)CC1 | 11.6 | 13.7
O=P(CCN1CCOC1c1cccnc1)(c1ccccc1)c1ccccc1 (stereo unspecified) | 6.5 | 7.8
O=c1c(O)c(-c2ccc(O)cc2)oc2cc(O)cc(O)c12 | 11.7&3.9 | -4.2&3.6
COc1ccc(-c2csc(NN=C(C)C)n2)cc1 | 3.0 | 1.2
Cc1ccc(-n2nc3c(c2NC(=O)c2ccc(S(=O)(=O)N(C)C)cc2)CSC3)cc1 | -0.2 | 6.0
COc1cccc(CC(C2CCN(C(=O)[C@H]3C[C@@H]4C=C[C@H]3C4)CC2)N(C)C(=O)c2ccco2)c1 (stereo partly specified) | 16.6 | 6.7
O=C(CCNC(=O)C1CC(c2ccc(F)cc2)=NO1)NCc1cccc(C(F)(F)F)c1 (stereo unspecified) | 2.6 | 13.1
COCCOC(=NCC1CCCO1)NC(=O)c1ccc(OC)cc1 (stereo unspecified) | -7.6 | 1.8
O=C(c1cccnc1OCC(F)(F)F)N1CCCC(c2ncn[nH]2)C1 (stereo unspecified) | 3.3 | 0.8
Cc1cccc(C)c1NC(=O)c1ccccc1C(=O)O | -8.3 | -12.7
COc1ccc(C(N)=NOC(=O)C2CCC(=O)N2S(=O)(=O)c2ccc(C)cc2)cc1 (stereo unspecified) | 3.7 | 1.5
O=C(Nc1cc(-c2nc3ccccc3o2)ccc1Cl)c1ccco1 | -6.3 | 4.8
CC/C(=C/C(=O)NCCN1CCN(C)CC1)c1ccccc1 | 6.9 | 3.8
O=C(COc1coc(CN2CCc3ccccc3C2)cc1=O)Nc1cccc([N+](=O)[O-])c1 | 3.4 | 0.6
O=C(O)C1CC(=O)N(Cc2ccccc2)C(=Nc2ccc(F)cc2)S1 (stereo unspecified) | -0.3 | -3.1
CCC(C)(C#CCN1CCCCC1)OCCC#N (stereo unspecified) | 7.5 | 3.3
CC1CCC(NCc2cn(CCC#N)nc2-c2ccccc2)CC1 (stereo unspecified) | 3.1 | 2.0
COc1ccc(-c2ccc(C)cn2)cn1 | -1.5 | -8.2
Cc1ccc2c(C)c(C(=O)NCCn3nc(-c4ccccc4)ccc3=O)oc2c1C | 11.9 | 4.4
O=C(c1ccncc1F)N1CCSc2ccc(Cl)cc21 | 8.9 | -6.1
COc1ccc(C2CC(OC(C)=O)ON2c2ccccc2)cc1 (stereo unspecified) | 2.2 | 8.2

A different layout for 2 compounds above.
Values run as follows: NPYLR7 ag | NPYLR7 ag max-min
COc1ccc(-c2ccc(C)cn2)cn1
 : -1.5 | -8.2
Cc1ccc2c(C)c(C(=O)NCCn3nc(-c4ccccc4)ccc3=O)oc2c1C
 : 11.9 | 4.4
